High-throughput results (PubChem BioAssay)
PABP FP inh: PABP poly(A) RNA binding inhibitors, primary screen, biochemical, fluorescence polarization, uHTS; inhibition, % at 35 µM; Polyadenylate-binding protein 1 (Homo sapiens), P11940; 290,000 compounds, 1% hits;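 active = 50% or more with normal probe brightness, or confirmed in later tests; about a fifth of its hits are not listed in these tables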;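 also: calls also rest on retests at 20 µM and on dose response follow-up; controls were probe without protein and protein plus probe with vehicle; some compounds called inactive have numbers as strong as hits; many hits fall short of the cut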
Target sequence (P11940 whole entry, looked up): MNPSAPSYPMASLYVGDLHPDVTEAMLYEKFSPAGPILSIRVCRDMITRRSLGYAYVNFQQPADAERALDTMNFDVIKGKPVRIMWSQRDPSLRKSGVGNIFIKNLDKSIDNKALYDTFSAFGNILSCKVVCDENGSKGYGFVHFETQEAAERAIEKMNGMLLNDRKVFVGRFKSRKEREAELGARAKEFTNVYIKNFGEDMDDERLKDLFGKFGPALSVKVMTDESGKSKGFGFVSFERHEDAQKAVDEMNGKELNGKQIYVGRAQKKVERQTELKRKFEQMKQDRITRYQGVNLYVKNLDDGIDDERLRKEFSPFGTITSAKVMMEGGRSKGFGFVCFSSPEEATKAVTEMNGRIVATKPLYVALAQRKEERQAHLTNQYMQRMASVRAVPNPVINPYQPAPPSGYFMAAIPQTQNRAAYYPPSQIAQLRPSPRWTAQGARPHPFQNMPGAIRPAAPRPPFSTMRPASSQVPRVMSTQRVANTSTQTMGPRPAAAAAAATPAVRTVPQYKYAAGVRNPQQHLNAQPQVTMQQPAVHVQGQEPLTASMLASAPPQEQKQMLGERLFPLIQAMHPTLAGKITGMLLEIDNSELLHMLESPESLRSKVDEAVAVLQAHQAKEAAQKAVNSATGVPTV
eIF4H FP inh: human eIF4H binding inhibitors, primary screen, translation initiation inhibitor project, biochemical, uHTS, fluorescence polarization; Eukaryotic translation initiation factor 4H (Homo sapiens), Q15056; eIF4H fluorescence polarization binding assay; inhibition, % at 35 µM; 290,000 compounds, 0.94% hits; AID 2012, 2009;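 active = 50% or more with normal probe brightness, or confirmed in later tests; about a fifth of its hits are not listed in these tables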;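 also: calls also rest on retests at 20 µM and on dose response follow-up; 0% = protein and probe with vehicle and 100% = probe without protein; strong numbers were not always called active; many hits fall short of the cut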
Env fusion inh: inhibitors of HIV-1 Env-driven cell-cell fusion, primary screen, HeLa-JRFL effector, CEM21 target cells, luciferase. inhibition, % at 12.3 µM. 360,000 compounds, 1.1% hits;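 active = mean replicate inhibition score of at least 50 and every replicate individually at or above 50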;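 also: 0% = plate neutral controls and 100% = maraviroc near 300 nM; one replicate is shown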
Rce1 inhib: yeast Rce1p protease inhibitors, primary screen, biochemical, fluorescence, cell-free homogeneous | CAAX prenyl protease 2 (Saccharomyces cerevisiae (strain ATCC 204508 / S288c)), Q03530 | yeast membranes, quenched prenylated peptide cleavage fluorescence | calls only | 290,000 compounds, 0.27% hits | AID 2563, 2010;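 active = fall in fluorescence gain of 50% or more versus controls, with final raw signal at or below 3038400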;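 also: plate controls were neutral control wells for no effect and wells lacking membranes for full effect; tested at 10 µM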
CSC inhib: cancer stem cell viability inhibitors, primary screen, luminescence | cancer stem cell-like cells viability | inhibition, % at 7.5 µM | 300,000 compounds, 1.1% hits | AID 2717, 2010;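 active = mean at 75% or more and at least half the replicates too; tested in HMLE shEcad cells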;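 also: 0% = median of negative and 100% = median of positive control wells; the first replicate is given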
MT1-MMP act inh: blockers of MT1-MMP proenzyme processing, primary screen, HT1080 RFP-PRO-GFP cells, GFP/RFP fluorescence; Matrix metalloproteinase-14 (Homo sapiens), P50281; GFP/RFP ratio fluorescence, overnight; percent of plate control window, DMSO zero; GFP/RFP ratio change, % at 20 µM; 360,000 compounds, 0.061% hits;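 active = GFP/RFP ratio change of at least 30% with cell ATP level not reduced by more than half and red fluorescence within 50% of control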; also: strong numbers were not always called active
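Assay system: RFP-PRO-GFP reporter HT1080 cells; read-out basis: GFP/RFP fluorescence ratio; benchmarks: DMSO wells and RFP-L50D-GFP cells; doses: 20 µM single dose, 1% DMSO; schedule: overnight cell settling, then overnight compound exposure, 37 °C, 5% CO2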
Yeast UUG start: modulators of yeast start codon fidelity, primary screen, whole organism, S. cerevisiae, single point, plate reader; S. cerevisiae UUG-firefly luciferase reporter, luminescence/redox ratio; activity score, % at 18.7 µM; 350,000 compounds, 0.13% hits;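 active = replicate mean at a twofold rise or more, about +100% in these data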;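 also: firefly luciferase made from a UUG start codon reports start codon fidelity; reporter light over untreated wells divided by growth signal over untreated wells; some hits fall short of that in this replicate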
MT1-MMP act inh RFP: second read-out of MT1-MMP act inh, no call of its own (marks repeat the call); RFP signal change, %; measured here: RFP expression control read;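 0 = vehicle wells; hits needed this value within 50% of zero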
Numbers without * were called inactive; i = inactive; . = not tested or not shown; + = active, no number; & = joins results of further samples. Only part of the results is shown. The share of hits here may be higher or lower than overall.

Values run as follows: PABP FP inh, eIF4H FP inh, Env fusion inh, Rce1 inhib, CSC inhib, MT1-MMP act inh, MT1-MMP act inh RFP, Yeast UUG start
- CCN1CCOC(CC(=O)Nc2cccc([N+](=O)[O-])c2)C1=O (centres undefined)
  9.2, 7.4, 14.0, i, -9.6, 1.7, 7.4, -14.6
- O=[N+]([O-])c1cc(S(=O)(=O)N2CCCCC2)ccc1NCc1cccc(Cl)c1
  0.7, -5.9, 18.6, i, 22.0, 0.1, 1.0, -18.3
- O=C(NC(Cc1ccccc1)C(=O)NC(Cc1ccccc1)C(=O)O)c1ccccc1 (centres undefined)
  -4.0, 0.3, -10.0, i, -10.4, -6.3, -3.7, -8.2
- O=C(CN1C(=O)/C(=C/c2ccc(C(F)(F)F)cc2)Sc2ccccc21)NCCCN1CCOCC1
  ., ., 5.6, i, -2.2, 3.2, -0.8, 14.2
- CNC(=S)NCc1ccc(OC)cc1
  4.8, -4.3, 6.3, i, -4.0, 7.7, 6.3, .
- CC(=O)Nc1ccc(S(=O)(=O)Nc2nc(C)cc(-n3nc(C)cc3C)n2)cc1
  15.1, 2.2, ., i, 2.8, 0.5, 1.9, .
- CCOc1cc(S(=O)(=O)N2CCN(Cc3ccccc3)CC2)ccc1Br
  11.8, -6.9, ., ., ., -6.0, -6.5, 4.4
- c1cnc(Oc2ccc(-c3nnco3)cc2)cn1
  -9.9, -0.1, -0.1, i, -6.3, 2.7, 4.6, .
- Cc1ccc(CNC(=O)/C=C/c2ccc(Br)o2)cc1
  11.9, 23.2, 7.1, i, -2.5, -2.3, 4.1, .
- CN1CCN(C(=O)c2cc(Cl)ccc2NC(=O)c2ccc(Cl)cc2Cl)CC1
  -3.9, -4.2, -5.5, i, -10.8, -2.6, 1.2, -14.7
- S=C(c1ccc(N2CCOCC2)cc1)N1CCOCC1
  4.1, 5.0, -13.1, i, 4.6, -1.5, -0.1, -22.2
- Cc1ccccc1C(=O)N(C)Cc1ccccc1
  -1.7, -0.7, 22.2, i, -9.8, 0.0, 4.3, -7.1
- CC(=O)Nc1cccc(NS(=O)(=O)Cc2ccc(Cl)cc2)c1
  -3.8, 4.0, ., i, -3.6, 5.6, 1.9, -7.0
- COc1cc(C(=O)N/N=C(\C)Cc2ccccc2)cc(OC)c1OC
  -10.5, 0.7, -1.5, i, -6.2, -0.5, 3.1, .
- O=S(=O)(Nc1ccccn1)c1ccc(Oc2ccccc2)cc1
  3.0, -3.9, 34.8, i, 1.8, 1.2, -3.2, -21.8
- CC1(C(=O)NS(C)(=O)=O)CCN1C(=O)C/C=C/c1ccccc1 (centres undefined)
  ., ., 7.2, ., ., -0.4, 0.5, -7.9
- Cn1c(SCC(=O)Nc2nccs2)nnc1-c1cccnc1
  ., ., -4.4, ., -5.3, -5.6, 3.0, -32.9
- CCOC(=O)Cc1csc(NC(=O)CSc2nc3cccnc3n2CC)n1
  2.5, 7.4, ., i, -0.5, -3.5, 0.5, -11.1
- O=C(O)CCCNC(=O)c1cncc(O)c1
  6.9, -2.8, -38.6, i, -6.3, 0.7, 2.7, -12.0
- COC(=O)c1ccc(OCC(=O)Nc2nn(-c3ccccc3)nc2C(N)=O)cc1
  -6.0, -1.2, -111.2, i, 6.6, -0.3, -3.0, -7.1
- COc1ccc(C(CC(=O)O)NS(=O)(=O)c2ccc(C)cc2)cc1OC (centres undefined)
  -1.8, -11.1, ., i, 0.4, 5.4, 5.6, -10.4
- CN(C(=O)c1cc(S(=O)(=O)N2CCOCC2)cs1)c1ccccc1
  -17.0, 9.1, ., i, -12.5, 0.3, 1.6, -8.2
- CCOc1ccc(N2C(=O)Nc3ccccc3C2(O)C(=O)NCc2ccccc2)cc1 (centres undefined)
  9.2, -2.5, 0.8, i, -14.6, 2.6, 2.1, .
- CCC(C)Sc1cccc(-c2nc3ccc(C)cn3c2NC2CCCCC2)c1 (centres undefined)
  ., ., 17.8&34.0, i, 6.6, -5.2&5.8, -16.1&-22.6, -16.7
- COc1ccccc1N(CC(=O)NCC1CCCO1)C(=O)CCC(=O)Nc1cc(C)on1 (centres undefined)
  7.3, 7.1, 14.7, i, ., 0.0, 1.5, 2.4
- CC1(C)C(c2ccccc2)=NC(c2ccc(Br)cc2)N1O (centres undefined)
  5.2, 3.2, -28.7, i, -1.7, -2.6, -1.6, .
- CC(Sc1nnc(COc2ccc([N+](=O)[O-])cc2)n1-c1ccccc1)C(=O)O (centres undefined)
  5.2, -7.1, ., i, -18.2, -0.5, -1.0, -13.6
- Cn1c(CCC(N)=O)nnc1SCC(=O)Nc1cc(S(=O)(=O)N2CCCC2)ccc1Cl
  ., ., 4.1, ., ., 6.7, 5.3, -16.2
- COC(=O)/C=C1/SC(=NC(=O)c2ccc(OC)cc2)NC1=O
  11.4, 0.9, -6.1, i, 0.8, 4.9, 5.0, -12.4
- CCc1c(C#N)c(SCCC(=O)Nc2ccc(F)cc2)nc2c1C(=O)CC(C)(C)C2
  -13.4, -14.1, ., i, 36.4, -2.9, -6.3, -20.2
- O=C(COC(=O)c1c(F)cccc1F)Nc1ccccc1OC(F)F
  10.5, -11.6, 29.7, i, -2.3, -3.0, -0.7, -15.9
- Cc1cc(C)n2nc(C(=O)Nc3ccn(Cc4ccccc4C)n3)cc2n1
  -13.8, -2.9, 15.7, i, -4.0, -2.5, 1.9, 1.5
- CC(C)(C)C(=O)Nc1nnc(CC(=O)NCc2ccccc2)s1
  -11.2, -2.7, 5.7, i, 1.1, 10.4, 9.3, .
- CCN(CC)C(=O)c1cn(-c2cccc(OC)c2)c(=O)c2ccccc12
  2.8, 2.0, 4.6, i, 11.5, -2.2, 0.2, -13.8
- CCCCCCOC(=O)CCn1[nH]c(=O)c2ccccc2c1=O
  -3.4, -6.8, -33.0, i, -25.5, -1.4, 0.1, 0.8
- CN(C)[C@@H]1CCC[C@H]1OC(=O)C(c1ccccc1)c1ccccc1
  3.6, -13.8, 14.0, i, 14.8, -3.1, 0.7, .
- N=c1oc2cc(O)ccc2cc1C(=O)Nc1nc2ccccc2s1
  7.2, 10.8, -52.4, +, 13.2, -42.9, -6.7, .
- Cc1ccc(OCC(=O)N/N=C/C=C/c2ccco2)c(Br)c1
  5.2, 26.4, ., i, ., 2.1, 6.8, -9.3
- COc1ccccc1C(=O)Nc1nnc(SCC(=O)NCC2CCCO2)s1 (centres undefined)
  3.3, -7.9, -37.0, i, -5.6, -0.1, 1.8, -11.8
- O=C(N/N=C/c1cc2ccccc2nc1Cl)/C(=C/c1cccs1)NC(=O)c1ccccc1
  -2.4, -3.6, -27.0, i, 1.1, 3.5, -3.5, 6.4
- Cc1nn(C)c(C)c1S(=O)(=O)N1CCC(C(=O)Nc2ccc3c(c2)OCCO3)CC1
  9.3, -11.7, 8.2, i, -0.2, 2.4, 6.5, -20.9
- CC(C)c1ccc(NC(=O)C2(C)Cc3c(-c4cccc(C(F)(F)F)c4)ccnc3O2)cc1 (centres undefined)
  ., ., 7.1, ., ., -3.6, -1.6, -4.4
- Cc1cccc(-c2ncc(CN3CCN(CCC(C)C)C(CCO)C3)cn2)c1 (centres undefined)
  -6.4, -6.6, 9.3, i, 34.8, 4.6, -0.5, .
- CNC(=O)C1CC(=O)N(c2ccc(OCC(=O)Nc3ccccc3C)cc2)C1 (centres undefined)
  ., ., -8.1, ., ., 2.5, 1.5, -7.2
- COc1ccc2oc(C(=O)NCC(c3ccco3)N(C)C)c(C)c2c1 (centres undefined)
  ., ., -9.6, i, -3.6, 0.0, 5.8, 7.0
- COc1ccc(/C=C/C(=O)NC(=S)Nc2ccc(S(=O)(=O)Nc3cc(C)on3)cc2)cc1
  7.3, -16.7, 25.7, i, 11.2, -0.9, -5.5, -21.2
- COc1ccc(C)cc1NC(=O)C1CCCN(S(=O)(=O)c2ccc3[nH]c(=O)ccc3c2)C1 (centres undefined)
  -1.3, 3.4, 0.7, i, 8.5, -1.0, -6.1, .
- Cc1ccc(S(=O)(=O)N2CCCN(C(C)c3nc4ccccc4c(=O)[nH]3)CC2)cc1 (centres undefined)
  ., ., -2.0, ., 9.3, -2.1, -2.9, -13.4
- NS(=O)(=O)c1ccc(NC(=S)N2CCc3ccccc32)cc1
  3.0, -2.0, -0.9, i, -9.8, 1.4, 0.0, -27.8
- O=C(N/N=C/c1sc2ccccc2c1O)c1cccc2ccccc12
  31.3, 21.6, -34.6, i, 97.4*, -45.7, 4.2, .

Given with bars between the fields: part of the list above
Molecule | PABP FP inh | eIF4H FP inh | Env fusion inh | Rce1 inhib | CSC inhib | MT1-MMP act inh | MT1-MMP act inh RFP | Yeast UUG start
COc1ccc(/C=C/C(=O)NC(=S)Nc2ccc(S(=O)(=O)Nc3cc(C)on3)cc2)cc1 | 7.3 | -16.7 | 25.7 | i | 11.2 | -0.9 | -5.5 | -21.2
COc1ccc(C)cc1NC(=O)C1CCCN(S(=O)(=O)c2ccc3[nH]c(=O)ccc3c2)C1 (centres undefined) | -1.3 | 3.4 | 0.7 | i | 8.5 | -1.0 | -6.1 | .

The results go on.
Values run as follows: PABP FP inh, eIF4H FP inh, Env fusion inh, Rce1 inhib, CSC inhib, MT1-MMP act inh, MT1-MMP act inh RFP, Yeast UUG start
- CCn1c(C)nc2cc(C(=O)NNC(=S)Nc3ccccc3)ccc21
  -3.5, 4.5, -83.0, i, -0.2, 5.2, 2.4, .
- Cc1cc2oc(=O)cc(CN3CCCCC3)c2cc1O
  -4.6, -3.5, 9.9, i, -10.5, 1.1, 1.7, -14.6
- COc1ccc(S(=O)(=O)NCCc2ccncc2)cc1
  3.6, 1.5, -1.0, i, 5.1, -1.5, 1.1, 1.2
- C[C@H]1Cn2cnc(C(=O)Nc3ccccc3)c2C(=O)N1
  ., ., 42.6, ., ., -4.8, 1.8, 10.8
- COc1ccc2[nH]c(=O)c(CN(CCN3CCCC3)C(=O)Nc3ccccc3Cl)cc2c1
  33.0, -3.2, ., i, -5.1, 0.4, 1.4, 2.5
- O=S(=O)(c1cccs1)N1CCN(c2ccc(Cl)cc2)CC1
  -2.7, -8.6, -1.4, ., -7.4, 2.2, 0.3, -1.8
- Cc1cccc2c(SCC(=O)NCC3CCCO3)nc(-c3ccc(F)cc3)nc12 (centres undefined)
  -17.4, -5.6, ., i, 11.6, 0.9, 0.2, -11.0
- CC(CSc1n[nH]c(=S)s1)c1ccccc1 (centres undefined)
  ., ., 14.4, ., ., 4.7, 5.1, -54.5
- CCOCCCNS(=O)(=O)c1ccc(NC(=O)Cc2c(F)cccc2Cl)cc1
  -14.9, 2.4, 16.1, i, 0.4, 0.9, -1.1, .
